# 2A StopGo – FMDV 2A StopGo reporter, luciferase signal; human cells with a luciferase reporter of 2A StopGo recoding; control for the full effect not named in the record; Potency, µM (top dose mostly 57.9 µM), without a hit: top-dose signal change, negative = less light; hit rate 1.2% among 410,000; active = well fitted falling curve with a large enough effect; inconclusive = small, poorly fitted or top-dose-only effect; inactive = no such curve, though single readings can be large or run the other way; tested in HEK293T cells; also: % is scaled to controls: 0 for no effect and ±100 for the full control effect; nearly all actives have a fitted effect of over 45% in size; luciferase light after 4 h
# MARV entry inh – Marburg virus entry inhibition. Potency, µM (highest dose often 37.8 µM), for inactives: at the highest dose activity change, negative = inhibition, hits mostly inhibitors. hit rate 1.8% among 300,000. Marburg virus pseudotyped entry inhibition, cell reporter; control for the full effect not named in the record; about a third of the inactives were read at about 46 µM; active = well fitted inhibition curve with a large enough effect; inconclusive = small, poorly fitted or top-dose-only effect, or effect the other way; inactive = flat fitted curve, though single readings scatter; tested in HEK293 cells; about a fifth of its hits are not listed in these tables; also: % is scaled to controls: 0 for no effect and ±100 for the full control effect; luciferase read-out
# Cruzain Triton – inhibitors of Trypanosoma cruzi cruzain with detergent | Potency, µM, for inactives: max response, negative = inhibition, most hits filed as inhibitors | purified cruzain, Z-FR-AMC fluorescence, 0.01% Triton | hit rate 0.43% among 200,000; active = well fitted curve in the direction sought with a large enough effect; inconclusive = small, poorly fitted or top-dose-only effect, or another doubt; inactive = no such curve, though single readings can be large; an effect the other way counts as inactive or inconclusive;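 also: plate controls were neutral wells for no effect and buffer without enzyme for full effect; nearly all actives have a fitted effect of over 40% in size; top concentration of the series not given in the record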
# Target sequence (P25779 123-467 limits assumed): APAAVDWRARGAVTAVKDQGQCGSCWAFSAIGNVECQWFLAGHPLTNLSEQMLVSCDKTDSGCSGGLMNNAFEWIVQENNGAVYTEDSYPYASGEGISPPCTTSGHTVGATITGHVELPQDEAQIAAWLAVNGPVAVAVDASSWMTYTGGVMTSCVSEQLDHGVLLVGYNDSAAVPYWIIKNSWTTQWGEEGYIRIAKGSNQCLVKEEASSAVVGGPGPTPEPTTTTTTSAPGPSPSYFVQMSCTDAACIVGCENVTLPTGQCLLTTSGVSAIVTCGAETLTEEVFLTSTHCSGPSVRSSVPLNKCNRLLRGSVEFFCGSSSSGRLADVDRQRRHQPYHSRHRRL
#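 Detergent-containing arm of a paired screen for aggregation-based inhibition: 0.01% Triton X-100 present. Cruzain at 1.5 nM cleaved 2 uM Z-FR-AMC at pH 5.5 with 5 mM DTT; AMC fluorescence gain over 60 s measured activity.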
# LASV entry inh – Lassa virus entry inhibition. Lassa virus pseudotype entry inhibition, cell reporter; control for the full effect not named in the record. Potency, µM (highest dose often 37.9 µM), inactives show top-dose activity change, negative = inhibition, most hits filed as inhibitors. hit rate 1.2% among 300,000. AID 540256; active means well fitted inhibition curve with a large enough effect; inconclusive means small, poorly fitted or top-dose-only effect, or effect the other way; inactive means flat fitted curve, though single readings scatter; tested in HEK293 cells; also: % is scaled to controls: 0 for no effect and ±100 for the full control effect; nearly all actives have a fitted effect of over 50% in size; luciferase read-out
# RE007 growth inh – less growth of the S. pombe RE007 Vpr strain; S. pombe RE007 Vpr strain, BacTiter-Glo ATP luminescence, 24 h; control for the full effect not named in the record; Potency, µM (doses to about 92.2 µM), inactives show at the top dose activity change, negative = less growth; hit rate 0.21% among 360,000; AID 651644; active = well fitted falling curve with a large enough effect; inconclusive = small, poorly fitted or top-dose-only effect; inactive = no such curve, though single readings can be large or run the other way;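 also: % is scaled to controls: 0 for no effect and ±100 for the full control effect; nearly all actives have a fitted effect of over 50% in size; the assay follows cell death caused by Vpr and the record does not say whether a fall means rescue or toxicity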
#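 Fission yeast strain RE007, carrying one chromosomally integrated HIV-1 vpr copy, was seeded at OD 0.01 in PMG+AL medium with 23 nL pinned compound. After 24 h at 30 °C and 99% humidity, viability was read by BacTiter-Glo luminescence.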
# NS1 function inh – influenza NS1 inhibition | Potency, µM (highest dose often 46.1 µM), for the others: at the top dose activity, positive = more growth | hit rate 0.4% among 270,000 | S. cerevisiae slowed by influenza A NS1, growth recovery by OD600; also: actives are rising curves; nearly all actives have a fitted effect of over 50% in size
#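 Recovery from NS1-induced slow growth read by OD600 in budding yeast switched to galactose assay medium (pH 6.0, -URA) at 1:100 dilution. Compound 23 nl per well; the matching strain lacking NS1 serves as control.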
# Cruzain noTriton – inhibitors of Trypanosoma cruzi cruzain without detergent; P25779; purified cruzain, Z-FR-AMC fluorescence, no detergent; Potency, µM, for inactives: max response, negative = inhibition, most hits filed as inhibitors; hit rate 2.3% among 200,000; active = well fitted curve in the direction sought with a large enough effect; inconclusive = small, poorly fitted or top-dose-only effect, or another doubt; inactive = no such curve, though single readings can be large; an effect the other way counts as inactive or inconclusive;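 also: plate controls were enzyme without inhibitor for no effect and buffer without enzyme for full effect; nearly all actives have a fitted effect of over 40% in size; top concentration of the series not given in the record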
#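 Detergent-free condition (0.00005% Triton X-100) in acetate buffer pH 5.5 with DTT. 1.5 nM enzyme and compound were pre-mixed 15 min, then 2 uM Z-FR-AMC substrate added; reaction progress from fluorescence change between first and third reads (60 s).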
# SARS PLP yeast – inhibitors of SARS-CoV papain-like protease in yeast; Potency, µM (titrated, usually from 32.9 µM), for inactives: at the top dose activity, positive = growth rescue; S. cerevisiae expressing SARS-CoV PLpro, growth rescue; control for the full effect not named in the record; hit rate 0.19% among 330,000; also: 0% is about no effect; nearly all actives have a fitted effect of over 55% in size; growth read by luminescence after 48 h
# Numbers without * were called inactive; ? = inconclusive; / = not tested or not shown; & = joins results of further samples; [ ] = another dose, or the depositor's remark. Unless noted, calls follow the shape of the dose curve; as a rule, active means well fitted rising curve with a large enough effect; inconclusive means small, poorly fitted or top-dose-only effect; inactive means no such curve, though single readings can be large or run the other way. Potency is read from the fitted curve at half-maximal effect. The order is random; about 4.5% have a hit in one of these screens.
# The opening 2 compounds as a preview:
SMILES,2A StopGo,MARV entry inh,Cruzain Triton,LASV entry inh,RE007 growth inh,NS1 function inh,Cruzain noTriton,SARS PLP yeast
COc1ccc(C(=O)NNC(=S)NC(=O)C(C)(C)C)cc1,-4%,?,/,?,-3%,/,/,-3%
CC1CN(C(=O)COC(=O)[C@@H]2CC(O)CN2S(=O)(=O)c2ccc3c(c2)OCCO3)CC(C)O1 (stereo not given in full),-19%,33%,0.6%,5%,6%,-3%,0%,12%

# Results, from the start:
SMILES,2A StopGo,MARV entry inh,Cruzain Triton,LASV entry inh,RE007 growth inh,NS1 function inh,Cruzain noTriton,SARS PLP yeast
COc1ccc(C(=O)NNC(=S)NC(=O)C(C)(C)C)cc1,-4%,?,/,?,-3%,/,/,-3%
CC1CN(C(=O)COC(=O)[C@@H]2CC(O)CN2S(=O)(=O)c2ccc3c(c2)OCCO3)CC(C)O1 (stereo not given in full),-19%,33%,0.6%,5%,6%,-3%,0%,12%
O=C(Nc1ccc(N2CCOCC2)c(F)c1)c1ccncc1,8%,-1%,0.4%,0%,-8%,2%,-2%,0%
Cc1cc(C)cc(OCC(=O)O/N=C(\N)c2cccnc2)c1,-2%,10%[46.1 µM],/,1%,-6%,-8%,/,0%
COc1cc(/C=N/NC(=O)c2sc(N)c(C#N)c2C)cc(Br)c1O,-7%,?,-9.2%,?,20%,3%,-20%,-2%
CC(Sc1ncnc2ccccc12)C(=O)Nc1ccc2c(c1)OCCO2 (stereo not given),16µM*,?,-6.4%,-23%,10%,-4%,3%,7%
c1cnc(SCCOc2ccc3c(c2)CCC3)nc1,50%,?,-3.7%,?,-24%,-6%,-1%,2%
COc1cccc(C2(O)CCN(CC(=O)NCC3CC3)CC2)c1,7%,0%,/,-15%,-11%,/,/,4%
Cn1c(=O)c2nc3ccccc3nc2n(C)c1=O,-7%,/,/,/,-12%,-7%,/,2%
CN1CCN(NC(=O)c2cccc(F)c2)CC1,-6%,-17%,5.8%,2%,-21%,-6%,7%,-4%
COCCOc1ccc(C(F)(F)F)cc1N,17%,/,/,/,7%,0%,/,25%
COc1ccc2c(c1)c(C(=O)O)c(C)n2CC(C)C,-17%,-14%&-14%,-6.3%,17%,8%,-4%,2%,7%
CC(C)c1nnc(NC(=O)CCC(=O)NCc2ccco2)s1,/,?,2.1%,-1%,6%,7%,-1%,-1%
Cc1ccccc1C(=O)Nc1ccc(S(=O)(=O)N2CCC(c3nc4ccccc4s3)CC2)cc1,?,-9%[46.1 µM],-2.5%,-4%[46.1 µM],/,/,-6%,/
CN(Cc1ccc(F)cc1)S(=O)(=O)c1nnc(NC(=O)c2ccccc2)s1,-3%&52%,-14%&-14%[46.1 µM],-1.2%,-17%&0%[46.1 µM],1%,-12%,?,1%
O=C(CCN1CCOCC1)c1ccc(Br)cc1,-14%,3%,/,?,32µM*,-3%,/,-6%
O=C(CSc1ncnc2c1cnn2-c1ccc(Cl)cc1)NCc1ccc2c(c1)OCO2,5%,?,2.8%,?,11%,1%,13µM*,-10%
CCOC(=O)CSc1nc2sc3c(c2c(=O)n1-c1ccccc1)CC(C(C)C)OC3 (stereo not given),-25%,/,0.7%,13%[46.1 µM],/,/,-2%,/
CCn1c2ccccc2c2cc(/C=C(/C#N)C(N)=S)ccc21,-17%,?,/,?,4%,/,/,/
CCN(CC)C(=O)Cn1c(SCCOc2ccc(Cl)cc2)nc2ccccc21,-17%,8%[46.1 µM],-1.5%,-7%[46.1 µM],/,/,9%,/
CSc1ccc(S(=O)(=O)Nc2c(C)n(C)n(-c3ccccc3)c2=O)cc1,-8%,/,/,/,6%,16%,/,5%
O=[N+]([O-])c1ccccc1CNC(Cc1ccccc1)c1ccccc1 (stereo not given),/,-23%,-0.5%,3%,-6%,3%,5%,-3%
Cc1ccc(C)c(N2CCN(C(=O)c3cc(S(=O)(=O)N4CCCCCC4)cn3C)CC2)c1,0%,/,-7.0%,-23%[46.1 µM],/,/,?,/
O=C(CSc1nnc2c(n1)[nH]c1ccc(F)cc12)NCc1ccc(F)cc1,-9%,3%[46.1 µM],/,/,10%,-6%,/,-4%
CC(C)c1ccccc1NC(=S)NCc1nc2ccccc2[nH]1,-12%,-28%[46.1 µM],/,-14%,17%,-1%,/,-2%
O=[N+]([O-])c1ccc(N/N=C2\CC3CC=CC23)c([N+](=O)[O-])c1 (stereo not given),?,0%[46.1 µM],/,-16%,6%,/,/,3%
COc1ccc(OC)c(-n2c(SCC(=O)NCc3ccco3)nnc2-c2c[nH]c3ccccc23)c1,0%,-7%,-1.4%,/,3%,-101%,-29%,-8%
COc1cc(S(=O)(=O)NCCc2ccc3c(c2)OCO3)ccc1-n1cnnn1,79%[activator],28%,-1.7%,0%,7%,-10%,-3%,11%
O=C(Cc1ccc(Br)c2ccccc12)N/N=C/c1ccccn1,?,?,/,?,-20%,/,/,-27%
COc1cccc2cc(C(=O)N3CCc4ccccc4C3)c(=O)oc12,77%[activator],11%,-3.6%,?,-5%,-20%,7%,-8%
COc1cc2nc(Nc3ccc(C)c(C)c3)nc(N)c2cc1OC,0%&-18%,?,28%,1%[46.1 µM],-8%,-2%,?,-2%
O=CC(=O)c1ccccc1,-24%,1%,-1.9%,/,-2%,/,-6%,-1%
COCCNCC(=O)N1c2ccccc2Sc2ccccc21,-5%,-15%,/,?,-6%,15%,/,6%
Cc1ccc(C)c(C(=O)CSc2nc(N)cc(=O)[nH]2)c1,-17%,/,/,/,18%,20%,/,-1%
Cc1cc(C)c2c(n1)nn1c(NCCCn3ccnc3)cc(C)nc21,/,/,4.7%,/,/,-9%,1%,-2%
C=CCNC(=O)c1ccccc1S(=O)c1ccccc1C#N (stereo not given),0%,-8%,3.5%,-1%,-4%,2%,3%,6%
Cn1c(N2CCOCC2)c(C=O)c2ccccc21,6%,/,/,/,-6%,0%,/,1%
CC(=O)N1CC(=O)N=C1SCC(=O)Nc1nc(-c2ccccc2)c(-c2ccccc2)s1,?,-33%,-9.3%,?,1%,2%,9%,?
Cc1c(CCO)sc[n+]1CC(=O)OC12CC3CC(CC(C3)C1)C2,-9%,?,0.8%,3%,11%,16%,9%,-13%
COc1ccccc1N1CCN(C(=O)CCNS(=O)(=O)c2ccc3c(c2)CCC(=O)N3)CC1,-29%,1%&-7%,-0.4%,-5%,17%,-3%,-2%,-1%
CCOC(=O)CCCNC(=O)COC(=O)CCC(=O)c1ccc(F)cc1,-2%,6%,1.8%,24%,-1%,0%,13%,-2%
COc1ccc(/C=N/Nc2nncc3ccccc23)cc1,3.5µM*,?,-5.9%,?,-18%,-9%,8%,-55%
Cc1ccc(S(=O)(=O)NCc2ccc(C(=O)NC3CCCCC3)cc2)cc1,-16%,-8%[46.1 µM],/,?,-10%,19%,/,-4%
Cc1cccc(CN2CCN(CC(=O)NCCCN3CCCC3=O)C2=O)c1,-14%,-4%,-1.0%,1%,13%,-1%,5%,1%
CCc1ccc2[nH]cc(C(=O)N3CCCCCC3)c(=O)c2c1,0%,4%,0.3%,1%,33%,-8%,-5%,-4%
CS(=O)(=O)Nc1ccc(-c2nc3ccccc3s2)cc1,0%,/,-18%,?,/,/,-6%,/
CCOC(=O)C(NC(C)=O)(NS(=O)(=O)c1ccccc1)C(F)(F)F (stereo not given),3%,-8%[46.1 µM],-1.8%,7%,-9%,0%,5%,0%
Cc1ccc(OCCn2cc(C(=O)c3cccs3)c3ccccc32)cc1,-6%,?,-7.6%,1%[46.1 µM],/,/,-18%,/
Cc1nc(-c2ccccc2)sc1-c1ccc(SCC(=O)Nc2cccc(C(F)(F)F)c2)nn1,-24%,/,-0.8%,22%[46.1 µM],/,/,20%,/
COc1ccnc(Nc2cccc(C)c2)c1C#N,/,-15%,4.4%,15%,5%,12%,-2%,6%
CCCCC(CC)CNC(=O)CCCn1c(=O)[nH]c2ccsc2c1=O (stereo not given),8%,8%[46.1 µM],-2.0%,?,/,/,28%,/
CC(C)(C)N=C(NS(=O)(=O)c1cccs1)c1ccccc1,5%,-2%[46.1 µM],/,10%[46.1 µM],8%,17%,/,-11%
O=c1oc2ccccc2cc1-c1cn2cc(Cc3ccc(F)cc3)sc2n1,53%[activator],-9%[46.1 µM],0.9%,?,/,/,7%,/
CN(C)CCN1CCc2ccccc21,-16%,22%,-3.3%,2%,27%,-5%,-10%,/
CCn1cc(Br)c(C(=O)Nc2sc3c(c2C(N)=O)CCCC3)n1,19%,?,/,?,3%,-4%,/,-1%
Cc1ccc(CNC(=O)CSc2nnc(C)c3c(C)n(-c4ccccc4)nc23)cc1,?,/,-4.5%,-9%[46.1 µM],/,/,3%,/
O=C(NCc1n[nH]c(=O)c2ccccc12)C1CC(=O)N(c2ccc(Cl)cc2)C1 (stereo not given),-4%,3%,/,11%,7%,/,/,-6%
Cn1cc(CN2CCC(C(O)CCc3ccccc3)CC2)c(-c2ccccc2F)n1 (stereo not given),-7%,?,/,-28%,2%,-2%,/,1%
CCCN1C(=O)c2cc(C(=O)Nc3ccc(OC)cc3OC)ccc2C1Nc1ccc(OC)cc1OC (stereo not given),-15%,15%[46.1 µM],/,-23%[46.1 µM],-15%,/,/,-4%
Cc1cc(C(F)(F)F)nn1C(=O)c1cccnc1Cl,0%,3%,7.9%,11%,1%,5%,-3%,3%
# Additional structures follow:
SMILES,2A StopGo,MARV entry inh,Cruzain Triton,LASV entry inh,RE007 growth inh,NS1 function inh,Cruzain noTriton,SARS PLP yeast
CCN1CCN(C(=O)Cn2ncc3c([nH]c4ccc(C)cc43)c2=O)CC1,-17%,-16%[46.1 µM],/,-1%[46.1 µM],-13%,-7%,/,1%
COC(=O)c1[nH]c2ccc(Br)cc2c1NC(=O)Oc1ccccc1,14%,0%,2.0%,-7%,-21%,-26%,-2%,-4%
COc1ccc(S(=O)(=O)N2CCCCC2)cc1NC(=O)C1CCCO1 (stereo not given),8%,2%[46.1 µM],/,8%,5%,7%,/,2%
CN(C(=O)CSc1cc(C(=O)c2nccn2C)c2ccccc2n1)c1ccccc1,10%,?,/,2%,5%,-46%,/,0%
